VACV mCherry inh – inhibitors of vaccinia virus infection (mCherry reporter signal); Vaccinia virus mCherry reporter infection, fluorescence; about a quarter of the inactives have no number; Potency, µM (highest dose often 36.5 µM), for inactives: at the highest dose activity change, negative = inhibition, hits mostly inhibitors; 310,000 compounds, 0.63% hits; AID 720579; active = well fitted inhibition curve with a large enough effect; inconclusive = small, poorly fitted or top-dose-only effect; inactive = no such curve, though single readings can be large or run the other way; tested in A549 cells; also: nearly all actives have a fitted effect of over 35% in size; inactives centre near -10
Vaccinia Venus – vaccinia inhibition (Venus reporter); Potency, µM (top dose mostly 36.5 µM), for inactives: top-dose activity change, negative = inhibition, most hits filed as inhibitors; 330,000 compounds, 0.46% hits; Vaccinia virus Venus reporter expression, fluorescence; active means well fitted inhibition curve with a large enough effect; inconclusive means small, poorly fitted or top-dose-only effect; inactive means no such curve, though single readings can be large or run the other way; tested in A549 cells; also: nearly all actives have a fitted effect of over 30% in size; inactives centre near -10
* hit, by the source's call; i = inactive; ? = inconclusive; . = not tested or not shown; & = joins results of further samples; [ ] = another dose, or the depositor's remark. % is scaled to controls: 0 for no effect and ±100 for the full control effect; potency is read from the fitted curve at half-maximal effect.

Start of the data: the first 27 records, to show the layout:
SMILES	VACV mCherry inh	Vaccinia Venus
CC(=O)Nc1cc(-c2ccccc2N(C)C)cn2c(-c3ccc(F)c(Cl)c3)cnc12	13%	-15%
Cc1nn(C2CCS(=O)(=O)C2)c(Cl)c1/C=C/C(=O)OCC(=O)c1cc(C)n(-c2ccc(F)cc2)c1C (stereo unspecified)	?	-29%
CCNc1nc(C(=O)O)nc(N2CCOCC2)n1	-7%	0%
COC(=O)COc1cccc2c(=O)n(CC(=O)N3CCC(C)CC3)ccc12	-3%	3%
COc1ccc(N2CCN(C(=O)CCC(=O)N3CC(C)Oc4ccccc43)CC2)cc1 (stereo unspecified)	5%	-2%
CC(=O)Nc1ccc(OCC(O)CN2C(C)CCCC2C)cc1 (stereo unspecified)	-7%	1%
COc1ccccc1NC(=O)CSC1=Nc2ccccc2C2=NC(CCC(=O)NCc3cccs3)C(=O)N12 (stereo unspecified)	i	-12%
COc1ccccc1C1CCN(Cc2ccc(C)cc2)CC1	-18%	-18%
Cc1cc(-c2nnc(SCC(=O)Nc3ccc(F)cc3F)n2N)n[nH]1	-14%	-6%
Cn1cc(CNCC2CCCO2)c(-c2ccc(Oc3ccccc3)cc2)n1 (stereo unspecified)	i	-18%
CC(C)C[C@H](NC(=O)N1CC(=O)Nc2ccccc21)C(=O)N[C@@H](Cc1ccccc1)C(=O)O	-8%	-2%
Cc1cccc(N2C(=O)c3cccnc3C2=O)c1	-2%	4%
COc1ccccc1NC(=O)c1c(NC(=O)Cc2ccccc2)sc2c1CCC(C(C)(C)C)C2 (stereo unspecified)	-19%	1%
Cc1ccc(Nc2nc3ccc(Cl)cc3n3cnnc23)cc1F	1%	-6%
COc1ccc(CN=C2NN=C(c3cccc(OC)c3)CS2)cc1	-27%	-12%
COc1cc(C(=O)OCc2cc(=O)n3nc(C4CCCCC4)sc3n2)cc(OC)c1OC	-13%	-11%
COc1ccc(CNC(=O)Cn2cc(C)c(=O)[nH]c2=O)cc1	i	-8%
CC(C)OCCCNC(=O)C1CCC(CNS(=O)(=O)c2cccc3nsnc23)CC1 (stereo unspecified)	i	-3%
CC1=CSC2=NS(=O)(=O)CCN12	-12%	-3%
CCOc1ccc(/C=N/NC(=O)Cc2ccccc2)cc1CN1CC2CC(C1)c1cccc(=O)n1C2 (stereo unspecified)	-14%	-19%
Cc1cc(Br)ccc1NC(=O)CN(C)Cc1cccs1	-10%	-13%
CC(C)C(=O)NNC(=O)c1csc(CS(=O)(=O)c2ccc(Cl)cc2)n1	-10%	-8%
Cc1[nH]ccc(=O)c1Cc1c(Cl)cccc1Cl	?	-14%
CCCn1cnc2c(SCCc3ccccc3)nc(N)nc21	-25%	-22%
Cc1cc(OCCn2ccnc2)cc(C(C)C)c1	-14%	-12%
COc1cc(C2NC(=O)NC(C)=C2C(C)=O)ccc1O (stereo unspecified)	i	-7%
CC(NC(=O)Cc1ccc(NC(=O)N2CCCCc3ccccc32)cc1)c1ccccc1 (stereo unspecified)	-7%	-4%

All compounds of this part (from the top)
SMILES	VACV mCherry inh	Vaccinia Venus
CC(=O)Nc1cc(-c2ccccc2N(C)C)cn2c(-c3ccc(F)c(Cl)c3)cnc12	13%	-15%
Cc1nn(C2CCS(=O)(=O)C2)c(Cl)c1/C=C/C(=O)OCC(=O)c1cc(C)n(-c2ccc(F)cc2)c1C (stereo unspecified)	?	-29%
CCNc1nc(C(=O)O)nc(N2CCOCC2)n1	-7%	0%
COC(=O)COc1cccc2c(=O)n(CC(=O)N3CCC(C)CC3)ccc12	-3%	3%
COc1ccc(N2CCN(C(=O)CCC(=O)N3CC(C)Oc4ccccc43)CC2)cc1 (stereo unspecified)	5%	-2%
CC(=O)Nc1ccc(OCC(O)CN2C(C)CCCC2C)cc1 (stereo unspecified)	-7%	1%
COc1ccccc1NC(=O)CSC1=Nc2ccccc2C2=NC(CCC(=O)NCc3cccs3)C(=O)N12 (stereo unspecified)	i	-12%
COc1ccccc1C1CCN(Cc2ccc(C)cc2)CC1	-18%	-18%
Cc1cc(-c2nnc(SCC(=O)Nc3ccc(F)cc3F)n2N)n[nH]1	-14%	-6%
Cn1cc(CNCC2CCCO2)c(-c2ccc(Oc3ccccc3)cc2)n1 (stereo unspecified)	i	-18%
CC(C)C[C@H](NC(=O)N1CC(=O)Nc2ccccc21)C(=O)N[C@@H](Cc1ccccc1)C(=O)O	-8%	-2%
Cc1cccc(N2C(=O)c3cccnc3C2=O)c1	-2%	4%
COc1ccccc1NC(=O)c1c(NC(=O)Cc2ccccc2)sc2c1CCC(C(C)(C)C)C2 (stereo unspecified)	-19%	1%
Cc1ccc(Nc2nc3ccc(Cl)cc3n3cnnc23)cc1F	1%	-6%
COc1ccc(CN=C2NN=C(c3cccc(OC)c3)CS2)cc1	-27%	-12%
COc1cc(C(=O)OCc2cc(=O)n3nc(C4CCCCC4)sc3n2)cc(OC)c1OC	-13%	-11%
COc1ccc(CNC(=O)Cn2cc(C)c(=O)[nH]c2=O)cc1	i	-8%
CC(C)OCCCNC(=O)C1CCC(CNS(=O)(=O)c2cccc3nsnc23)CC1 (stereo unspecified)	i	-3%
CC1=CSC2=NS(=O)(=O)CCN12	-12%	-3%
CCOc1ccc(/C=N/NC(=O)Cc2ccccc2)cc1CN1CC2CC(C1)c1cccc(=O)n1C2 (stereo unspecified)	-14%	-19%
Cc1cc(Br)ccc1NC(=O)CN(C)Cc1cccs1	-10%	-13%
CC(C)C(=O)NNC(=O)c1csc(CS(=O)(=O)c2ccc(Cl)cc2)n1	-10%	-8%
Cc1[nH]ccc(=O)c1Cc1c(Cl)cccc1Cl	?	-14%
CCCn1cnc2c(SCCc3ccccc3)nc(N)nc21	-25%	-22%
Cc1cc(OCCn2ccnc2)cc(C(C)C)c1	-14%	-12%

The list goes on.
SMILES	VACV mCherry inh	Vaccinia Venus
COc1cc(C2NC(=O)NC(C)=C2C(C)=O)ccc1O (stereo unspecified)	i	-7%
CC(NC(=O)Cc1ccc(NC(=O)N2CCCCc3ccccc32)cc1)c1ccccc1 (stereo unspecified)	-7%	-4%
COc1ccc(C(=O)NC2CCN(C(=S)NCCc3ccccc3)CC2)cc1	-7%	-19%
CC(NC(=O)C1CCN(c2nnc(N3CCCC3=O)s2)CC1)c1ccccc1 (stereo unspecified)	i	-15%
CCc1ccc(NC(=O)Cn2nnc(C(=O)NCc3cccs3)c2N)cc1	i	-11%
Cc1cccn2c(=O)c(C=C(C#N)C#N)c(N3CCN(c4cccc(Cl)c4)CC3)nc12	-14%	-9%
COc1ccc2c(c1)c1c(c(=O)n(-c3cc(Cl)ccc3C)c(=O)n1Cc1ccc(F)cc1)n2C	-12%	-9%
O=C(CNC(=O)c1ccco1)NCC(=O)OCc1cccc(C(=O)Oc2ccccc2)c1	i	-4%
O=C(c1ccc(Cl)nc1)N1CCN(S(=O)(=O)c2ccccc2)CC1	-1%[7.34 µM]	-15%[7.34 µM]
C[C@H](Cc1ccc(O)c(O)c1)[C@@H](C)Cc1ccc(O)c(O)c1	-17%	-22%
COc1ccc(CCNCc2cc(C)n(-c3ccc(OC)cc3)c2C)cc1	-13%	-14%
Cc1cc(NC(=O)CSc2nc(Cc3ccccc3)c(C)[nH]2)no1	i	-8%
CCn1cc(/C=N\NC(=O)c2ccc(Cl)cc2)cn1	-5%	9%
COc1ccc(C2c3c(ncn(CCN4CCOCC4)c3=N)Oc3ccc4ccccc4c32)cc1OC (stereo unspecified)	i	-15%
C/C(=N\OCC(=O)Nc1nc2ccccc2s1)c1ccccc1	-11%	-3%
NS(=O)(=O)c1ccc(CNc2ccc3ccccc3n2)cc1	i	-14%
CCOC(=O)c1cc(-c2ccc(F)cc2)n(CCC(=O)NC2CCCCC2)c1C	-16%	-12%
Cc1ccc(CNc2oc(-c3ccco3)nc2C#N)cc1	-18%	-8%
CC[C@@H]1C(c2cccc(Cl)c2)=NN(c2ccc(Br)cc2)[C@H]1C(=O)N1CCOC1=O	?	?
COC(=O)[C@@]1(Cc2ccc(F)cc2)[C@H]2c3cc(C(=O)N(C)C)n(CCN4CCOCC4)c3C[C@H]2CN1C(=O)c1ccccc1	-6%	-2%
O=C(Nc1ccc(Cl)c(Cl)c1)c1ccc2c(c1)OCO2	-13%	-7%
Cc1ccc2nc(NC(=O)Cn3nc(C)c([N+](=O)[O-])c3C)sc2c1	i	-24%
CCS(=O)(=O)N1CCCC(C(=O)NCc2cccc(OC)c2)C1 (stereo unspecified)	.	0%
COC(C/C=C\[C@@H](O)COCc1ccccc1)OC	i	-18%
Cc1ccc(NC(=O)Nc2ccccc2)cc1[N+](=O)[O-]	-7%	-14%

Later entries
SMILES	VACV mCherry inh	Vaccinia Venus
Cc1ccc(S(=O)(=O)N2CCOCC2)cc1NC(=O)Nc1ccc([N+](=O)[O-])cc1	i	-9%
CCOc1cc(C2NC(=O)NC(c3ccccc3)=C2C(C)=O)ccc1OC(C)=O (stereo unspecified)	-14%	-5%
Cc1c(Cl)cccc1NC(=S)NCc1ccccc1	-14%	-14%
CCN(CC)c1ccc(C(=O)NNC(=O)Cn2c(=O)cnc3ccccc32)cc1	-10%	-10%
CCOc1ccc2nc3c(cc2c1)CN(CCCO)C(=NCCOC)S3	-11%	?
Cc1cc2nccc(-c3cccnc3)n2n1	i	3%
C/C=C/C=C/C(=O)OCC(=O)Nc1ccc(Cl)cc1	-2%	-9%
CCn1cc(C(=O)O)c(=O)c2cc(F)c(N3CCN(C(=S)Nc4ccc(OC)cc4)CC3)cc21	-1%	-2%
O=C(N/N=C/c1ccc(Cl)cc1)c1cc2c(s1)-c1ccccc1CC2	.	-10%
COc1ccc(NC(=O)N2CCCC2C(=O)NCC2CCCCC2)cc1 (stereo unspecified)	-16%	1%
NS(=O)(=O)c1ccc(CCN2C(=O)CCC2=O)cc1	i	-11%
O=C(Nc1ccccc1Br)c1ccc(N2CCCC2=O)cc1	0%	4%
O=C(/C=C/c1cc(Br)ccc1F)OCC(=O)N1CCCC1	-13%	-5%
CCOc1ccc(N(CC(=O)N2CCC(Cc3ccccc3)CC2)S(C)(=O)=O)cc1	-22%	-15%
O=C(CCC(=O)c1cccs1)NCc1ccccc1	-21%	-2%
COCCN1C(=O)CSCC1(C)C(=O)Nc1ccc2c(c1)OCCO2 (stereo unspecified)	-9%	-4%
c1ccc2nc3ccccc3cc2c1	-12%	2%
COC(=O)[C@H]1[C@H](c2ccccc2)[C@H](C(=O)OC)O[C@H]1c1ccccc1	i	1%
COc1ccc(OC)c(/C=C2\Oc3cc(OCC(=O)N4CC(O)C[C@H]4C(=O)O)ccc3C2=O)c1 (stereo partly specified)	-4%	1%
O=C(Nc1ccc(S(=O)(=O)NC2=NCCCCC2)cc1)c1ccc(Cl)cc1Cl	?	-24%
O=C(Nc1ccccc1C(=O)NCCCN1CCOCC1)c1ccc(Cl)cc1	i	-4%
CCCn1c(SCC(=O)c2ccc3c(c2)OCCO3)nnc1-c1ccco1	i	-13%
CC1CCCN(C(=O)C2CCN(CC(C)c3ccccc3)CC2)C1 (stereo unspecified)	.	6%
CC(C(=O)NCc1ccccn1)c1ccc([N+](=O)[O-])cc1 (stereo unspecified)	i	-9%
Cc1nnc(SCC(=O)Nc2sc3c(c2C(N)=O)CCCC3)[nH]c1=O	i	-2%

(continued)
SMILES	VACV mCherry inh	Vaccinia Venus
CCCC12CN3CC(CCC)(CN(C1)C3c1c(C)[nH]c(=O)[nH]c1=O)C2=O (stereo unspecified)	7%	0%
COc1ccccc1Cc1c(-c2ccc(Cl)cc2)nc2c(Cl)cc(C(F)(F)F)cn12	10%	6%
CCC(=O)O[C@]1(C(=O)CCl)[C@@H](C)C[C@H]2[C@@H]3CCC4=CC(=O)C=C[C@]4(C)[C@@]3(F)[C@@H](O)C[C@@]21C	-24%&-19%	-16%&-14%
O=C(Nc1nccs1)[C@@H]1CCCN1S(=O)(=O)c1ccc(Cl)cc1	-12%	2%
Clc1ccc(OCc2nn3c(-c4ccco4)nnc3s2)cc1	-4%	-16%
COc1ccccc1CNC(=O)c1sccc1-c1ccccc1	-20%	-6%
CCN(CC)c1ccc(/C=N/N2CCOCC2)c(O)c1	-19%	-5%
CC(=O)OC1C([N+]2(C)CCCCC2)C[C@H]2C3CC[C@H]4C[C@H](OC(C)=O)C([N+]5(C)CCCCC5)CC4(C)[C@H]3CCC12C (stereo partly specified)	-14%	-9%
COc1cccc(C(=O)NC23CC4CC(CC(C4)C2)C3)c1	-14%	-26%
CC(C)CC(CO)N1CCN(C(=O)c2ccc(Cl)c(Cl)c2)CCC1=O (stereo unspecified)	i	-18%
Cc1ccc(CC2S/C(=C(/C#N)C(=O)NCc3ccco3)N(c3ccccc3)C2=O)cc1 (stereo unspecified)	-11%	-2%
Cc1ccc(NS(=O)(=O)c2ccccc2)c2c1CC(C)(C)O2	-20%	-11%
CN(C)CCCn1c(NC(=O)C2CCCCC2)nc2ccccc21	3%	0%

Assay outcomes (PubChem BioAssay)
